GCN5L2 inh = GCN5L2 (KAT2A) acetyltransferase inhibition; Q92830; GCN5L2 HAT assay, ThioGlo1 CoA-SH fluorescence; Potency, µM (highest dose often 58.9 µM), without a hit: top-dose activity change, negative = inhibition, most hits filed as inhibitors; 390,000 tested, 0.21% active; AID 504327; active = well fitted inhibition curve with a large enough effect; inconclusive = small, poorly fitted or top-dose-only effect, or another doubt; inactive = no such curve, though single readings can be large or run the other way
Target sequence (Q92830 whole entry, looked up): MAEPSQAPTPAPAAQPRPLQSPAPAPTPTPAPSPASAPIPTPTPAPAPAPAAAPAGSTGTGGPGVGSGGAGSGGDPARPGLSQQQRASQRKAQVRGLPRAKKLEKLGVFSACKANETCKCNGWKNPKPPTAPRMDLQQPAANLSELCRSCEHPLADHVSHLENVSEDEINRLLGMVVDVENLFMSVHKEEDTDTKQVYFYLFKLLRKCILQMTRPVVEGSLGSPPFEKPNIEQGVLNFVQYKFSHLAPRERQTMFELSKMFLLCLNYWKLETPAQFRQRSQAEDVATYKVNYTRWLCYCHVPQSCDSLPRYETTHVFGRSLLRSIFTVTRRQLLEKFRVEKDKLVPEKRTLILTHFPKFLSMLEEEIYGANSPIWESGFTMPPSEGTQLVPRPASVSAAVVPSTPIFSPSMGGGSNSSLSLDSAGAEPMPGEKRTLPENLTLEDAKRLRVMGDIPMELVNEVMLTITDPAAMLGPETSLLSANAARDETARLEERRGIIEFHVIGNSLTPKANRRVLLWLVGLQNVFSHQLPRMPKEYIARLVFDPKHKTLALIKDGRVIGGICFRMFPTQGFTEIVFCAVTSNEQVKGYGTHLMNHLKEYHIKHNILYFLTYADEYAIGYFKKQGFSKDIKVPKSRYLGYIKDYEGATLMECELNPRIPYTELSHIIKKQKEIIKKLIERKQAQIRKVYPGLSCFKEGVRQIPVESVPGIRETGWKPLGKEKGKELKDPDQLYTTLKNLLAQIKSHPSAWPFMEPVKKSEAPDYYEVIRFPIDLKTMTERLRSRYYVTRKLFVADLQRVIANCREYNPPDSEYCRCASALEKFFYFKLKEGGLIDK
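ThioGlo1-coupled HAT assay: 20nM GCN5L2, 70uM acetyl-CoA, 75uM H3(1-25) peptide, pH 7.5. Fluorescence read at 340/540nm at start and after 20 min at room temperature.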
Numbers without * were called inactive; ? = inconclusive. % is set by controls: 0 for no effect and ±100 for the full control effect; potency is the fitted concentration of half-maximal effect. An excerpt, and most or all hits are left out here.

CC(=O)c1c(-c2ccc(C)cc2)nc2c3ccccc3ccn12
  GCN5L2 inh: -1.6%

CCOC(=O)C1CCN(Cc2ccc(OCc3ccccc3)c(OC)c2)CC1
  GCN5L2 inh: -7.4%

COC(=O)C1CCN(Cc2cn(-c3ccccc3)nc2-c2ccc3c(c2)OCO3)CC1
  GCN5L2 inh: 3.4%

COc1cccc(C(=O)NCCS(=O)(=O)NCc2ccco2)c1
  GCN5L2 inh: 5.5%

Cc1ccc2[nH]c(CSc3nnc(NC(=O)COc4ccc(F)cc4)s3)cc(=O)c2c1
  GCN5L2 inh: -2.0%

COc1ccccc1CNC(=O)CNC(=O)c1sc2ccccc2c1Cl
  GCN5L2 inh: -26.8%

CN1C(=O)/C(=C/C=C2\SCCN2C)N(C)C1=S
  GCN5L2 inh: -8.0%

C=CCc1ccc(OCCCCNC2CCCC2)c(OC)c1
  GCN5L2 inh: -6.2%

O=C(O)CSCC(=O)Nc1ccc(C(=O)O)cc1
  GCN5L2 inh: -1.0%

Cc1ccc(OCCSCc2nc3ccccc3[nH]2)cc1
  GCN5L2 inh: -11.2%

Cc1cc(NC(=O)c2ccc(COc3ccc(Cl)c(C)c3)o2)no1
  GCN5L2 inh: -3.4%

CCN(CC)C1CCN(C(=O)c2ccc(OC3CCN(CCc4ccccc4)CC3)cc2)C1 (centres undefined)
  GCN5L2 inh: -19.2%

O=C(O)CCC(=O)N1CCc2cc(S(=O)(=O)N(CCc3ccccc3)Cc3ccccc3)ccc21
  GCN5L2 inh: -16.6%

O=C(N/N=C/c1ccoc1)c1ccccc1Br
  GCN5L2 inh: -6.4%

C/C(=N\N1CCN(c2ccc(Cl)cc2)CC1)c1ccco1
  GCN5L2 inh: -3.1%

Cc1ccc(C)c(OCCC(=O)NNC(=O)c2ccccc2F)c1
  GCN5L2 inh: -2.6%

CCn1c(NCc2ccccc2Cl)nc2ccccc21
  GCN5L2 inh: -12.2%

O=C(CCn1c(=O)sc2ccccc21)NCc1ccc2c(c1)OCO2
  GCN5L2 inh: 2.4%

Cc1c(Cl)cnc(NC(=O)COC(=O)CCC(=O)c2cccs2)c1Cl
  GCN5L2 inh: -2.3%

Cc1cc(C)c2nc(SCCC#N)nc(C)c2c1
  GCN5L2 inh: -2.7%

Cn1c(Cn2c(=O)sc3ccccc32)nnc1SCc1ccccc1
  GCN5L2 inh: -3.9%

NC(=O)c1cccc([N+](=O)[O-])c1
  GCN5L2 inh: 0.9%

COc1ccc(N2C(=O)C3CCCN3C2c2ccccc2F)cc1 (centres undefined)
  GCN5L2 inh: -3.7%

Nc1nc(-c2ccco2)nn1C(=O)c1ccc(Cl)cc1
  GCN5L2 inh: -7.8%

O=C(Nc1cccc(Br)c1)c1cc(S(=O)(=O)N2CCCCC2)c[nH]1
  GCN5L2 inh: -2.2%

Exported as comma-separated lines: part of the list above.
smiles,GCN5L2 inh
O=C(O)CSCC(=O)Nc1ccc(C(=O)O)cc1,-1.0%
O=C(CCn1c(=O)sc2ccccc21)NCc1ccc2c(c1)OCO2,2.4%
Cn1c(Cn2c(=O)sc3ccccc32)nnc1SCc1ccccc1,-3.9%

Reprinted at random: 3 entries already listed
NC(=O)c1cccc([N+](=O)[O-])c1
  GCN5L2 inh: 0.9%

COc1cccc(C(=O)NCCS(=O)(=O)NCc2ccco2)c1
  GCN5L2 inh: 5.5%

Cc1ccc(OCCSCc2nc3ccccc3[nH]2)cc1
  GCN5L2 inh: -11.2%

A different layout for two compounds above:
| SMILES | GCN5L2 inh |
| --- | --- |
| NC(=O)c1cccc([N+](=O)[O-])c1 | 0.9% |
| COc1ccc(N2C(=O)C3CCCN3C2c2ccccc2F)cc1 (centres undefined) | -3.7% |

Further entries follow.
Cc1cccc(NC(=O)CC2NCCNC2=O)c1 (centres undefined)
  GCN5L2 inh: -11.2%

CC(=O)Nc1ccc2c(c1)CN(c1cc(C)ccc1C)CO2
  GCN5L2 inh: -2.4%

CCC(=O)Nc1ccc(N2CCCCC2)c(C(=O)Nc2ccccc2C)c1
  GCN5L2 inh: -0.5%

CCOC(=O)/C(=N\Nc1ccc(Cl)cc1)c1csc(Nc2ccccc2)n1
  GCN5L2 inh: -25.4%

CC(C)[C@H](NC(=O)c1ccccc1F)C(=O)NC1CCCCCCC1
  GCN5L2 inh: -1.4%

COCC(C)n1c(C)cc(C(=O)COC(=O)CNC(=O)c2ccccc2)c1C (centres undefined)
  GCN5L2 inh: -0.7%

CCn1c(SCC(=O)Nc2sc3c(c2C(N)=O)CCC(C)C3)nnc1-c1ccco1 (centres undefined)
  GCN5L2 inh: -14.2%

CC(C)=CC(=O)N1CCC(N2CCC(C(=O)N3CCOCC3)CC2)CC1
  GCN5L2 inh: -20.7%

O=C(O)c1cccc(NC(=O)c2ccc3c(c2)C(=O)N(C2CCCCC2)C3=O)c1
  GCN5L2 inh: 0.5%

COc1ccc(N2C(=O)CCC(C(=O)N3CCCCC3)C2c2ccc(OC)c(OC)c2)cc1 (centres undefined)
  GCN5L2 inh: 0.0%

Cc1nc2sc(C(c3cccc(F)c3)N3CCOCC3)c(O)n2n1 (centres undefined)
  GCN5L2 inh: -0.8%

O=C(CSc1n[nH]c(-c2ccncc2)n1)Nc1ccc(Cl)c(Cl)c1
  GCN5L2 inh: -6.0%

CCOC(=O)c1c(NC(N)=O)nc2n1CCC2
  GCN5L2 inh: 2.0%

CC(CC1C(C#N)=C(N)OC2=C1C(=O)CCC2)c1ccccc1 (centres undefined)
  GCN5L2 inh: -2.9%

NS(=O)(=O)c1ccc(CCNC(=O)CN2CCCCC2)cc1
  GCN5L2 inh: -8.2%

CCCC(=O)Nc1cccc(NC(=O)c2ccc3c(c2)OCO3)c1
  GCN5L2 inh: -13.6%

Cc1ccc2c(c1)-c1c(cnc3cc(-c4ccc(Cl)cc4)nn13)CO2
  GCN5L2 inh: 0.3%

CC(C)=CC(=O)Nc1nnc(C)s1
  GCN5L2 inh: -2.1%

Cc1noc(C)c1NC(=O)N(C)C[C@H]1Oc2c(NC(=O)C3CC3)cccc2C(=O)N([C@H](C)CO)C[C@@H]1C
  GCN5L2 inh: -0.9%

CCC(C(=O)c1ccc(O)cc1)c1ccccc1 (centres undefined)
  GCN5L2 inh: -4.3%

N#Cc1c(-c2ccccc2)cc(C2CC2)nc1SCC(=O)c1cccs1
  GCN5L2 inh: 2.2%

CNC(=O)C1CC(=O)N(c2ccc(OCC(=O)Nc3ccc(OC)cc3)cc2)C1 (centres undefined)
  GCN5L2 inh: -1.1%

c1ccc(N2CCN(c3cnccn3)CC2)nc1
  GCN5L2 inh: 1.8%

O=C(N1CCCC1)n1c(Cc2ccccc2)nc2ccccc21
  GCN5L2 inh: -5.5%

COc1ccc(C(=O)OC(C(=O)c2ccccc2)c2ccccc2)cc1 (centres undefined)
  GCN5L2 inh: ?

Cc1ccc2c(c1)N(S(=O)(=O)c1ccc(F)cc1)C(C(C)(C)C)CO2 (centres undefined)
  GCN5L2 inh: -27.2%

O=C(c1ccc2c(c1)N(Cc1ccc(Cl)cc1)C(=O)c1ccccc1S2(=O)=O)N1CCCCCC1
  GCN5L2 inh: -6.1%

CCOC(=O)C1CCN(S(=O)(=O)c2ccc(C)c(C(=O)NC3CCCCC3)c2)CC1
  GCN5L2 inh: -0.9%

O=C(O)c1ccc(CSCc2ccccc2F)o1
  GCN5L2 inh: -28.1%

C=CCN1CC2CC3(COc4cc(C)cc(C)c4)C=CC2(O3)C1=O (centres undefined)
  GCN5L2 inh: 1.1%

CC(C)(CO)NCC(O)COc1ccc2c(c1)CCC2 (centres undefined)
  GCN5L2 inh: 14.0%

CCCS(=O)(=O)c1c(S(=O)(=O)CCC)c2cc(CC)ccn2c1C(=O)OC
  GCN5L2 inh: -0.3%

O=C(COC(=O)C1=COCCO1)NC1CCCCCCC1
  GCN5L2 inh: -7.1%

O=C(CCN1C(=O)/C(=C/c2ccc(Cl)cc2)SC1=S)NCCCn1ccnc1
  GCN5L2 inh: -29.1%

Cc1nc(-c2ccc(F)cc2)c(CC(=O)N2CCN(S(=O)(=O)c3cccc(Cl)c3)CC2)s1
  GCN5L2 inh: -3.6%

CCN(C(=O)COC(=O)c1ccccc1OCc1ccc(Cl)cc1)C1CCS(=O)(=O)C1 (centres undefined)
  GCN5L2 inh: 2.1%

Cc1cccc(Cc2c(C)nc3nc(SCc4ccccc4C)nn3c2C)c1
  GCN5L2 inh: 0.1%

Cc1sc(NC(=O)C2CCCCC2C(=O)O)c(C(N)=O)c1-c1ccc(C(C)C)cc1 (centres undefined)
  GCN5L2 inh: -11.2%

CCC(CC)NC(=O)c1cc(S(=O)(=O)N2CCCCC2)ccc1N1CCOCC1
  GCN5L2 inh: -7.8%

CC[C@]12c3[nH]c4cc(CCC(=O)N(C)C)ccc4c3CCN1C(=O)[C@@H](CC(=O)NCCN1CCOCC1)C[C@@H]2C(=O)N1CCN(C(=O)c2ccco2)CC1
  GCN5L2 inh: -3.4%

O=S(=O)([N-]c1nc2ccccc2nc1-[n+]1ccccc1)c1ccc(Cl)cc1
  GCN5L2 inh: -5.5%

CC(C)Cc1nnc(NC(=O)CSc2nc(O)c(Cc3ccccc3)c(=O)[nH]2)s1
  GCN5L2 inh: 14.6%

O=C(c1ccco1)N1CCN=C1SCc1cccc(Cl)c1
  GCN5L2 inh: -3.5%

COc1ccc(NC(=O)C(CCS(C)(=O)=O)N2C(=O)c3ccccc3C2=O)cc1 (centres undefined)
  GCN5L2 inh: -2.9%

COc1ccccc1-n1nnnc1SCC(=O)N1CCCC1=O
  GCN5L2 inh: -11.4%

CCN(CC)C(=O)Oc1ccc2ccccc2c1Cl
  GCN5L2 inh: -1.7%

C/C(=N\NC(=O)c1nnn(-c2nonc2N)c1-c1ccc2c(c1)OCO2)c1ccccc1
  GCN5L2 inh: -20.4%

CCOC(=O)C1=C(C)NC(=S)N(C(C)=O)C1c1ccccc1 (centres undefined)
  GCN5L2 inh: -2.5%

COCc1cc(C)nc(SCc2nc3ccccc3c(=O)[nH]2)c1C#N
  GCN5L2 inh: 0.3%

NC(=O)C1CCN(C(=O)c2ccc([N+](=O)[O-])cc2NC(=O)c2cccs2)CC1
  GCN5L2 inh: 2.9%

O=C(COc1coc(CN2CCc3ccccc3C2)cc1=O)Nc1ccc(Cl)cc1
  GCN5L2 inh: -10.0%

COc1ccc(C(=O)CSc2nnc(-c3cc(C)cc(C)c3)o2)cc1
  GCN5L2 inh: -1.0%

CC(=O)N1c2c(cc(Br)cc2S(=O)(=O)N2CCN(c3ccccn3)CC2)CC1C (centres undefined)
  GCN5L2 inh: -1.1%

CC(C)(C)Nc1c(-c2ccc(O)cc2)nc2ccc(Cl)cn12
  GCN5L2 inh: -11.5%

CC(C)Cc1nc(SCC(=O)N2CC(C)OC(C)C2)c2c(=O)n(C)c(=O)n(C)c2n1 (centres undefined)
  GCN5L2 inh: -1.5%

Cc1ccc(N2C(N)=NC(N)=NC2(C)C)c(C)c1
  GCN5L2 inh: 3.0%

CCSc1nc2c(c(=O)[nH]1)C(c1ccc(C)cc1)C1=C(CCCC1=O)N2 (centres undefined)
  GCN5L2 inh: -5.4%

O=C1OC(c2ccccc2)C2(CCCC2)C(=O)C12CCCC2 (centres undefined)
  GCN5L2 inh: -0.4%

CCCN1CCN(C(=O)Cn2ncc3ccccc32)CC1
  GCN5L2 inh: -14.9%

O=C(O)CCCCNS(=O)(=O)/C=C/c1ccccc1
  GCN5L2 inh: -7.7%

CC(=O)Nc1sc(C)c(C)c1C(=O)OCC(=O)N(CCC#N)c1cc(C)cc(C)c1
  GCN5L2 inh: -25.2%

COC(=O)CN(c1cccc(C)c1)S(=O)(=O)c1ccccc1
  GCN5L2 inh: 3.4%

CCOc1cc(/C=C2/NC(=O)N(Cc3ccccc3F)C2=O)ccc1O
  GCN5L2 inh: -10.7%

Cn1cc(C(=O)N/N=C/c2ccc([N+](=O)[O-])cc2)c2ccccc21
  GCN5L2 inh: ?

CCOc1ccc(NC(=O)Nc2ccc(NC(C)=O)cc2)cc1
  GCN5L2 inh: -1.1%

COc1cc(CC(=O)Nc2cccc(C(F)(F)F)c2)cc(OC)c1OC
  GCN5L2 inh: 1.0%

Cn1c(=O)c2c(nc(CN3CCc4ccccc4C3)n2Cc2cccc(Cl)c2)n(C)c1=O
  GCN5L2 inh: -0.5%

CCn1cc(CNC(=O)CCSc2nc(-c3ccco3)cc(C(F)(F)F)n2)cn1
  GCN5L2 inh: -3.2%

COCCCNc1nc(N)c([N+](=O)[O-])c(Nc2ccccc2OC)n1
  GCN5L2 inh: 3.1%

CCOC(=O)Nc1sc(C)c(C)c1C(N)=O
  GCN5L2 inh: -1.3%

O=C(NCc1cccnc1)c1cccc(S(=O)(=O)N2CCOCC2)c1
  GCN5L2 inh: 3.8%

O=C(C1=C(O)C(=O)N(CCN2CCOCC2)C1c1cccnc1)c1cc2ccccc2o1 (centres undefined)
  GCN5L2 inh: -3.3%

O=C(CCCCn1c(=O)[nH]c2ccccc2c1=O)N1CCN(c2ncccn2)CC1
  GCN5L2 inh: -0.2%

Cc1nn(-c2ccccc2)c(C)c1/C=N/n1c(-c2ccc(C(C)(C)C)cc2)n[nH]c1=S
  GCN5L2 inh: -15.6%

O=C(O)COc1ccc(NC(=O)c2ccco2)cc1
  GCN5L2 inh: -13.5%

CCC(=O)Nc1ccc(C(=O)Nc2c[nH]c(=O)[nH]c2=O)cc1
  GCN5L2 inh: 6.4%

COc1ccc(-n2nc(C(=O)Nc3ccccc3OC)c3c4ccccc4n(C)c3c2=O)cc1Cl
  GCN5L2 inh: -3.4%

CNc1c(NS(=O)(=O)c2ccc(OC)c(Cl)c2)c(=O)oc2ccccc12
  GCN5L2 inh: -7.2%

CC(=O)Nc1ccc(Oc2ncccn2)c(Cl)c1
  GCN5L2 inh: 0.0%

Assay outcomes (PubChem)
